Vaccinia mCherry – vaccinia inhibition (mCherry reporter); AID 720579; Potency, µM (titrated, usually from 36.5 µM), inactives show at the top dose activity change, negative = inhibition, usual class: inhibitors; 310,000 compounds, 0.63% hits; Vaccinia virus mCherry reporter infection, fluorescence; about a quarter of the inactives have no number; active = well fitted inhibition curve with a large enough effect; inconclusive = small, poorly fitted or top-dose-only effect; inactive = no such curve, though single readings can be large or run the other way; tested in A549 cells; note: nearly all actives have a fitted effect of over 35% in size; inactives centre near -10
VACV Venus inh – inhibitors of vaccinia virus (Venus reporter) | 330,000 compounds, 0.46% hits | Vaccinia virus Venus reporter expression, fluorescence | Potency, µM (doses to about 36.5 µM), without a hit: at the top dose activity change, negative = inhibition, hits mostly inhibitors; active means well fitted inhibition curve with a large enough effect; inconclusive means small, poorly fitted or top-dose-only effect; inactive means no such curve, though single readings can be large or run the other way; tested in A549 cells; note: nearly all actives have a fitted effect of over 30% in size; inactives centre near -10
Numbers without * were called inactive; i = inactive; u = inconclusive; x = no result given; & = joins results of further samples; [ ] = dose if it differs, or a comment. % is set by controls: 0 for no effect and ±100 for the full control effect; potency is the fitted concentration of half-maximal effect.

SMILES	Vaccinia mCherry	VACV Venus inh
CCN(Cc1nc(-c2ccc(OC)cc2)oc1C)S(=O)(=O)c1ccc(Cl)cc1	-15%[7.34 µM]	-8%[7.34 µM]
Fc1ccccc1OCCn1c(=S)[nH]c2ccccc21	i	-11%
CCC(C)Sc1nc2c(c(=O)[nH]c(=O)n2C)n1CCc1ccccc1 (stereo not given)	x	-18%
O=C(NNS(=O)(=O)c1ccccc1F)c1sccc1-n1cccc1	-2%	-12%
COc1ccc(S(=O)(=O)N2CCOC23CCN(S(=O)(=O)c2cc(C)ccc2OC)CC3)cc1	-15%	-4%
O=S(=O)(c1ccc(S(=O)(=O)N2CCN(C/C=C/c3ccccc3)CC2)cc1)N1CCCC1	-13%	-18%
O=C(NNC(=O)c1ccc(S(=O)(=O)N2CCCCC2)cc1)c1ccccc1	-11%	-11%
CC(C)=CC(=O)N1CCC(N2CCC(C(=O)NCC3CCCO3)CC2)CC1 (stereo not given)	-11%	1%
COc1ccccc1NC(=S)NCCc1ccc(F)cc1	-20%	-4%
O=P1(NCCCn2cc[n+](Cc3nc4ccccc4[nH]3)c2)C=C(c2ccccc2)OC(c2ccccc2)=C1	-12%	-5%
Nc1nc(-c2ccco2)nc(N2CCCCC2)n1	x	-14%
COc1cccc(OC)c1C(=O)N1CCNCC1	-13%	-6%
CCOc1ccc(CCNC(=O)CN(c2ccc(C)cc2)S(=O)(=O)N(C)C)cc1OCC	-14%	0%
CN(C(=O)COc1ccc(Cl)cc1Cl)c1nnc(C23CC4CC(CC(C4)C2)C3)s1	-8%	-23%
O=C(O)C1CCN(C(=O)c2ccccc2N2C(=O)[C@@H]3Cc4c([nH]c5ccccc45)C(c4cccc(Cl)c4)N3C2=O)CC1 (stereo not given in full)	1%	3%
Cc1cc(C(C)(C)C)cc(C)c1COC(=O)C1CCC(=O)N1 (stereo not given)	x	-5%
Cc1cc([N+](=O)[O-])c(C)cc1-c1ccc(/C=N/n2cnnc2)o1	i	2%
CC1CCN(C(=O)Nc2ccc3nsnc3c2)CC1	-3%	-20%
COc1ccccc1NC(=O)N(Cc1ccco1)Cc1cc2c(C)ccc(C)c2[nH]c1=O	x	-12%
COCCN(CC(=O)NCc1ccc(F)cc1)C(=O)CCC(=O)Nc1nccs1	x	-15%
Cc1ccc(C(=O)Nc2ccc(S(=O)(=O)N3CCN(C)CC3)cc2)cc1	-9%	0%
Cc1ccc(C)c(NC(=O)CSc2nc3ccccc3nc2N2CCOCC2)c1	0%	-16%&2%
C=CCNC(=O)/C(=C\c1ccc2c(c1)OCO2)NC(=O)c1ccc(Br)cc1	-6%	-18%
O=C(NCCN1CCC(Cc2ccccc2)CC1)C1CCCN(S(=O)(=O)c2cnc[nH]2)C1 (stereo not given)	i	-1%
CC(C)CCOc1ncnc2c1sc1nc3c(cc12)CSC(C)(C)C3	-11%	-3%

Among those listed so far, these have a thiophene ring, fused or not.
SMILES	Vaccinia mCherry	VACV Venus inh
O=C(NNS(=O)(=O)c1ccccc1F)c1sccc1-n1cccc1	-2%	-12%
CC(C)CCOc1ncnc2c1sc1nc3c(cc12)CSC(C)(C)C3	-11%	-3%

Continuation:
SMILES	Vaccinia mCherry	VACV Venus inh
O=C1CC(N2CCN(C3CCc4ccccc4C3)CC2)C(=O)N1c1ccccc1 (stereo not given)	x	-10%
Cn1c(=O)[nH]c2c(cnn2C)c1=O	-14%	-9%
CCN1CCN(C(=S)c2ccc(Br)cc2)CC1	-2%	-13%
Cn1cc([N+](=O)[O-])c(C(=O)NC2CCCC2)n1	-20%	-3%
CCOc1ccc(N=C2NC(=O)S/C2=C\c2ccc(O)cc2)cc1	x	21%
CN(C)CCNC(=O)c1cc(Br)ccc1Cl	-23%	-2%
COc1ccc(CCNC(=O)CN2C(=O)NC3(CCCCC3)C2=O)cc1	-4%	-14%
C=CC(=O)N=c1sc2ccccc2n1-c1ccccc1	u	u
Cc1oc(-c2ccc(C(=O)NC(C)c3ccccc3)cc2)nc1CS(=O)(=O)c1ccccc1 (stereo not given)	i	-9%
CCCN1CCC(N2CCCC(C(=O)O)C2)CC1 (stereo not given)	-4%	5%
Cc1cccc(NC(=O)C2CCCN2S(=O)(=O)c2ccc3c(c2)n(C)c(=O)c(=O)n3C)c1 (stereo not given)	1%	-2%&-3%
CCOC(=O)c1[nH]c(C)c(CCC(=O)Nc2cccc(C(F)(F)F)c2)c1C	-2%	-3%
Cc1ccc(C(=O)OCC(=O)NN2C(=O)NC3(CCC(C)CC3)C2=O)cc1 (stereo not given)	-26%	-16%
CCOc1ccc(S(=O)(=O)Nc2cccc(C(=O)N3CCN(c4ccccc4O)CC3)c2)cc1	-22%	-14%
O=C(Cc1cccs1)NNC(=S)NC(=O)c1ccccc1	i	-7%
Cc1nn2c(-c3ccncc3)ccnc2c1Br	i	-8%
O=C(COc1cccc2c1CCNC2=O)NC1CCCCC1	-14%	-10%
CC(=O)c1ccc(N2CCN(CCC#N)CC2)c(F)c1	-8%	-8%
CCC(=O)Nc1ccc2c(c1)C(=O)N(C)C2=O	x	-9%
CN(c1ccccc1)S(=O)(=O)c1cccc(C(=O)N2CCN(c3ccccn3)CC2)c1	x	u
O=C(COc1ccccc1Cl)Nc1ccc(OCc2cc(=O)n3ccsc3n2)cc1	-5%	-2%
Cc1cc(C)c(C)c(S(=O)(=O)N2CCC(C(=O)N3CCN(c4ccc(F)cc4)CC3)CC2)c1C	-26%	-23%
Cc1ccc(NC(=O)C(=O)NCC(c2cccnc2)N2CCc3ccccc32)cc1Cl (stereo not given)	-19%	-18%
CCOP(=O)(OCC)c1nc(-c2ccc(OC)cc2)oc1N1CCOCC1	-15%	16%
COC(=O)c1ccc(CN2CCCC(C(=O)Nc3cccc(-n4cnnn4)c3)C2)cc1 (stereo not given)	-19%	-20%

2 compounds picked at random from those above:
SMILES	Vaccinia mCherry	VACV Venus inh
CN(C)CCNC(=O)c1cc(Br)ccc1Cl	-23%	-2%
COc1ccccc1NC(=S)NCCc1ccc(F)cc1	-20%	-4%

The list continues.
SMILES	Vaccinia mCherry	VACV Venus inh
Cc1ccc(C)c(S(=O)(=O)NCCOC(=O)Nc2sc(=S)n(C)c2C)c1	-30%	-21%
Cc1cccc(C(=O)N2CCN(Cc3ccc4c(c3)OCO4)CC2)c1	-1%	-19%
CCN(CC)C(=O)C(C)N1c2cccc3cccc(c23)S1(=O)=O (stereo not given)	i	1%
COc1cc(Br)c(/C=C(\C#N)c2nc3ccccc3[nH]2)cc1OC	i	-11%
NS(=O)(=O)c1ccc(NC(=S)NC(=O)C2CCCCC2)cc1	i	-13%
C[C@]12CC[C@H](O)C[C@@H]1CC[C@H]1[C@H]3CCC(=O)[C@@]3(C)CC[C@@H]12	i	-7%
CNC(=O)C1CCN(C(=O)N2CC(C)Oc3ccc(C)cc32)CC1 (stereo not given)	1%	1%
C#CCOCCOCCOCCNc1nc(N2CCN(C(=O)[C@H](CCCN=C(N)N)n3cc(C(N)[C@@H](C)CC)nn3)CC2)nc(N2CCN(C(=O)[C@H](CC(N)=O)n3cc([C@@H](N)C(C)C)nn3)CC2)n1 (stereo not given in full)	-25%	-5%
CCCn1nc(C(=O)NNC(=O)CCCOc2ccc(C)cc2)c2ccccc2c1=O	-12%	-6%
CCN(c1cccc(C)c1)S(=O)(=O)c1cnc[nH]1	i	-10%
C[C@H]1CN([C@@H](C)CO)C(=O)CCCn2cc(nn2)CO[C@@H]1CN(C)C(=O)Nc1ccc2c(c1)OCCO2	-30%	-9%
C=CCn1c(SCC(=O)Nc2ccc3c(c2)OCCO3)nnc1-c1ccco1	-14%	-15%
COc1ccc(NC(=O)C2(c3cccs3)CCOCC2)cc1	-10%	-9%
O=C(N/N=C/c1ccc2c(c1)OCO2)C(=O)Nc1cccc(Cl)c1	-2%	12%
O=C1CN(C(=O)CSc2nnnn2-c2ccc(Cl)cc2)c2ccccc2N1	i	-10%
COc1ccc(OC)c(NC(=O)COC(=O)CSc2ccc(Cl)cc2)c1	-4%	-9%
CCOCC(=O)Nc1ccc([N+](=O)[O-])cc1OC	-9%	-15%
O=C(O)CCN=CC1=C(O)CC(c2ccccc2)CC1=O (stereo not given)	-13%	-5%
CCOC(=O)c1cnc(SC)nc1Oc1cccc(NC(=O)c2ccc(C)cc2)c1	x	-2%
COc1cc(/C=N/n2c(-c3ccccc3)n[nH]c2=S)cc(OC)c1OC	-7%[7.34 µM]	-7%[7.34 µM]
CN(C)C(=O)NC1C=CS(=O)(=O)C1 (stereo not given)	-13%	-7%
Cc1ccc(CCNC(=O)c2ccc(CS(=O)(=O)Cc3ccc(Cl)cc3)o2)cc1	-8%	-10%
CCOC(=O)c1c(NC(=O)CNC2CCCCC2)sc(C)c1C	-14%	-29%
NC(=S)N=Nc1c(O)[nH]c2ccc(F)cc12	5µM*	3.5µM*
COc1ccc(-c2oc(=O)c3cc(OC)c(OC)cc3c2/C=C/c2ccc(F)cc2)cc1	-3%	-17%

Single records (already shown). Screens in order: Vaccinia mCherry | VACV Venus inh
Record of Cc1nn2c(-c3ccncc3)ccnc2c1Br → i | -8%
Record of Cc1ccc(C)c(S(=O)(=O)NCCOC(=O)Nc2sc(=S)n(C)c2C)c1 → -30% | -21%
Record of CCC(C)Sc1nc2c(c(=O)[nH]c(=O)n2C)n1CCc1ccccc1 (stereo not given) → x | -18%
Record of O=C(NCCN1CCC(Cc2ccccc2)CC1)C1CCCN(S(=O)(=O)c2cnc[nH]2)C1 (stereo not given) → i | -1%

Next records:
SMILES	Vaccinia mCherry	VACV Venus inh
CCCn1cc(S(=O)(=O)c2ccc(OCC)cc2)c(=O)c2cc(C)ccc21	u	u
Cc1ccc(NC(=O)CN(C)C(=O)COc2ccccc2-c2ccccc2)cc1	-26%	-27%
O=C(CCCc1nc(-c2ccccc2)no1)NC1CCCCC1	-14%	-20%
COC(C(=O)Nc1ccccc1C(=O)N1CCOCC1)c1ccccc1 (stereo not given)	-13%	-9%
CCCC(O)(c1ccc(CC)cc1)C(CN1CCOCC1)c1ccccc1 (stereo not given)	-17%	-6%
CSc1nc2c(c(=O)[nH]1)C(c1ccc(Cl)cc1)CC(=O)N2 (stereo not given)	-8%	-12%
COC(=O)C1=C(C(=O)c2ccc(C)cc2)C(c2ccc(OC)c(OC)c2)n2nnnc2N1 (stereo not given)	x	-6%
CC(C)[C@H](NC(=O)c1ccccc1F)C(=O)OCC(=O)NC1CC1	i	-8%
COc1ccc(C2c3[nH]c4ccccc4c3CCN2CCCn2cccn2)cc1C (stereo not given)	-11%	-5%
O=C(CN1CCN(C(=O)c2ccco2)CC1)Nc1ccc(Cl)c(S(=O)(=O)N2CCOCC2)c1	i	-8%
COc1cc(-c2nc3cnccn3c2Nc2ccc(C(C)C)cc2)ccc1O	u	u
Fc1ccc(NCc2nc3ccccc3n2CCOc2ccccc2Cl)cc1	-28%	-36%
CC1=C(C#N)CCC(=O)N1Cc1c(C)cc(C)cc1C	x	u
O=C(O)CCN1C(=O)c2ccccc2Sc2ncccc21	-14%	1%
CC(C)(C)S(=O)(=O)N1Cc2ccc(CO)cc2[C@H]1CCO	-1%	u
CC(=O)Nc1ccc(C)cc1-c1nc2ccccc2n(CC(=O)Nc2cc(Cl)ccc2C)c1=O	-9%	-8%

Exported bar-delimited: entries from further up
Compound | Vaccinia mCherry | VACV Venus inh
CCCn1cc(S(=O)(=O)c2ccc(OCC)cc2)c(=O)c2cc(C)ccc21 | u | u
Cc1ccc(NC(=O)CN(C)C(=O)COc2ccccc2-c2ccccc2)cc1 | -26% | -27%
O=C(CCCc1nc(-c2ccccc2)no1)NC1CCCCC1 | -14% | -20%
COC(C(=O)Nc1ccccc1C(=O)N1CCOCC1)c1ccccc1 (stereo not given) | -13% | -9%
CCCC(O)(c1ccc(CC)cc1)C(CN1CCOCC1)c1ccccc1 (stereo not given) | -17% | -6%
